Assay outcomes as filed in PubChem.
CapD inh: inhibitors of Bacillus anthracis CapD enzyme; purified CapD enzyme, fluorescence intensity read-out; stronger effect = lower value; some hits fall short of the stated cut; AID 492967; z-score (no concentration beside the values); hit rate 0.23% among 140,000;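 active = z-score under -4 in either of two replicates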;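 note: stock transfer was 100 nL into about 40 µL; score is relative to mean and spread of the plate; one replicate is shown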
AID504770: growth inhibitors of E. coli YBA685 in a screen for V. cholerae RctB (chromosome II replication) inhibitors; z-score (no concentration beside the values); E. coli YBA685 rctB-dependent plasmid, OD600 growth, 3 h; stronger effect = lower value; hit rate 0.27% among 130,000;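 active = z-score under -2 on both plates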;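 note: wells of about 30 µL received 100 nL stock; score is relative to mean and SD of the test wells; the first replicate is given; strong numbers were not always called active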
Active calls of the source: *; . = no result given.

SMILES	CapD inh	AID504770
CC1Cc2scc[n+]2-c2ccccc2N1C=O (stereo unspecified)	0.125	-0.55
N#Cc1ccc(NC(=O)COC(=O)CSc2ccccc2)cc1	.	-0.55
Cc1ccc(-c2nn(-c3ccccc3)cc2/C=C2\SC(=S)NC2=O)cc1	0.225	1.25
C=CCN1C(=O)C(CC(=O)Nc2ccc(Cl)cc2)SC1=Nc1ccc(O)cc1 (stereo unspecified)	-0.135	-0.75
COc1ncnc2c1sc1nc(N3CCOCC3)c3c(c12)CCCC3	0.34	-0.9
CN(C)c1ccc(/C=N/N=C/c2ccc(N(C)C)cc2)cc1	-0.275	0.15
CCOc1ccccc1N=C1NC(=O)CS1	-0.47	0.25
COc1ccc(/C=C2\C=C(c3ccccc3)N(c3ccc(Br)cc3)C2=O)cc1	-0.905	.
FC(F)(F)c1cccc(NC(=S)N2CCc3ccccc3C2)c1	-0.465	.
COC(=S)Nc1ccc(Cl)cc1C	0.41	-0.35
C/C(=N\Nc1nc2sc3c(c2c2ncnn12)CC(C)(C)OC3)C(=O)O	.	-0.9
CCOc1ccc(NC(=O)c2cc(S(=O)(=O)N3CCN(c4ccc(OC)cc4)CC3)ccc2F)cc1	-0.175	.

Compound profiles (already shown):
`Cc1ccc(-c2nn(-c3ccccc3)cc2/C=C2\SC(=S)NC2=O)cc1` across the screens: CapD inh: 0.225; AID504770: 1.25
`CCOc1ccccc1N=C1NC(=O)CS1` across the screens: CapD inh: -0.47; AID504770: 0.25

Next part.
SMILES	CapD inh	AID504770
Fc1ccc(-c2csc(-c3cccnc3)n2)cc1	3.37	.
O=C(NCCC1=CCCCC1)c1ccc2snnc2c1	-0.635	-0.65
CC12CC3(C)CC(C)(C1)CC(C(=O)O)(C2)C3	0.79	-0.65
CCN1CCSC1=Nc1ccc(OC)cc1	.	0.5
O=C(COc1ccccc1)NC1=NCCS1	.	-0.4
Cc1nn(C(=O)c2cc3sc(Br)cc3[nH]2)c(C)c1C	.	-0.65
CC(CC1C(C#N)=C(N)SC(N)=C1C#N)c1ccccc1 (stereo unspecified)	.	-1.4
N#Cc1c(N)nc(CCc2ccccc2)c(C#N)c1N	17.6	1.75
CCN(CC)c1ncc(C#N)c(N)n1	-0.575	-1.15
CC(C)CN(CC(C)C)C(=O)Nc1ccccc1C(F)(F)F	0.13	-0.35
O=C(CCn1cccc1)N(CCN1CCOCC1)Cc1ccco1	0.39	1.65
O=C(Cn1c(=O)n(Cc2ccco2)c(=O)c2sc3ccccc3c21)NC1CCCC1	7.21	0.5
Cn1c(=O)c2c(nc(SCC(=O)c3ccccc3)n2CCCc2ccccc2)n(C)c1=O	-0.57	-0.5
CC(C)(C)c1csc(-c2ccc(S(=O)(=O)N3CCOCC3)cc2)n1	48.8	0.2
CCOC(=O)C1=C(C(=O)OCC)SC(=C2C(=S)C(C)(C)N(C(=O)CC(C)C)c3cc(C)ccc32)S1	-0.71	.
CCC(C)Nc1nc(NC(C)C)nc(Oc2ccc(C(=O)OC)cc2)n1 (stereo unspecified)	-0.31	.
Cc1cc2ccccc2n1CCNC(=O)C(C)Oc1ccccc1 (stereo unspecified)	0.56	-0.95
CC1CC(C)(C)N(C(=O)NC2CCCCC2)c2ccccc21 (stereo unspecified)	0.475	.
COc1cccc(Nc2ncnc3c2cnn3-c2ccccc2)c1	1.5	-0.6
COC(=O)C(OC(=O)c1ccc(-n2cccn2)cc1)c1ccccc1 (stereo unspecified)	.	0.2
CN(C)CCN1C(=O)C(=O)/C(=C(/O)c2ccc(S(=O)(=O)N(C)C)cc2)C1c1ccccc1 (stereo unspecified)	.	-0.45
Cc1ccc2cc(C#N)c(NCCNC(=O)Nc3ccccc3C)nc2c1	.	-0.55
COC(=O)c1sccc1NC(=O)CN1CCN(c2ccc(F)cc2)CC1	-0.58	.
CCOC(=O)c1sc(COc2ccc3nonc3c2)nc1C	1.67	0.25
CC12CCC(C1)C(C)(C)C2N (stereo unspecified)	0.695	.
O=C(c1ccccc1F)c1cc(Br)ccc1NC(=O)c1c(O)c2ccccc2[nH]c1=O	-2.08	.
CCCCc1ccc(/C=N/NC(=O)c2ccccc2CCc2ccccc2)cc1	-0.35	.
C/C(=N\NC(=O)Cc1nc2ccccc2n1C)c1ccc(S(=O)(=O)NCCC(=O)O)cc1	.	-0.25
COc1ccc(OC)c(/C=C\C(=O)NCC(=O)O)c1	-0.28	-0.2
Cc1cccc(Cl)c1S(=O)(=O)N(CCN(C)C)Cc1ccccc1	-1.13	.
O=C(CC(SCc1ccco1)c1ccc(F)cc1)c1cccs1 (stereo unspecified)	-0.305	-0.55
COc1ccc(C2C=C(c3ccc(Br)cc3)Nc3nc4ccccc4n32)cc1 (stereo unspecified)	-0.53	.
COc1ccccc1C(=O)Nc1ccc2nc(SCC(=O)NCCOc3ccccc3)sc2c1	3.5	.
COC(=O)c1c(C)[nH]c(O)c1C=Nc1ccc(Oc2ccccc2)cc1	-0.555	.
O=C(CC1COc2ccccc2O1)NCc1ccccc1 (stereo unspecified)	.	-0.9
COc1cc2[nH]c(=O)c(C(=O)NCCCc3ccccc3)c(O)c2cc1OC	7.86	-0.35
COc1ccc(C(=O)/C=C2\NC(=O)CS2)cc1	-0.6	-1.25
CC(NC(=O)Cn1nc(Cc2cccnc2)c2ccccc2c1=O)c1ccc2c(c1)OCCO2 (stereo unspecified)	0.445	-0.45
COC(=O)C1=C(O)/C(=C\c2cc(C)n(-c3ccc(OC)c(Cl)c3)c2C)N=C1C	0.34	0.9
COc1ccc(-c2nnc3ccc4ccccc4n23)cc1[N+](=O)[O-]	1.75	.
CCOc1ccc(NC(C)=O)cc1Br	-1.02	-0.7
CC1CC(Nc2ccccc2)c2ccccc2N1C(=O)COc1ccc(Cl)cc1 (stereo unspecified)	-0.395	.
COc1ccc(-c2n[nH]c(=S)n2CCC(=O)NC(C)c2ccccc2)cc1 (stereo unspecified)	.	-0.05
COc1ccc(C(=O)OCC(N)=O)cc1S(=O)(=O)N1CCCc2ccccc21	.	-0.45
COc1ccc(-n2ncc3c(Nc4c(C)n(C)n(-c5ccccc5)c4=O)ncnc32)cc1	-0.89	.
CCOC(=O)c1c(Nc2ccc(Br)cc2C)n[nH]c1C	2.1	0.4
CC1(C)C=Cc2cc(OCC(=O)O)ccc2O1	-0.25	-0.65
CCC(=O)N1N=C(c2cccs2)CC1c1cccs1 (stereo unspecified)	52.5	-0.9
N#Cc1ccsc1NC(=O)CCS(=O)(=O)c1ccccc1	.	0
CC(=O)NC(C)c1nc2ccccc2n1Cc1ccccc1 (stereo unspecified)	-0.275	-0.2
CC(=O)N1CCC(N(C(=O)Nc2ccc(Cl)cc2)C2CCCCC2)CC1	0.235	-1.25
C/C(=N\NC(N)=S)C1=CC(C)(C)CCC1	.	0.05
CCc1ccc2cc(-c3ccccc3)cn2c1	42.5	0.45
O=C(O)CCCC[C@H]1SC[C@H]2NC(=O)N[C@H]21	0.04	-1.05
COC(=O)c1ccc(-n2ncnc2-c2cccc(Br)c2)cc1	-0.865	-0.3
Cc1nn(-c2ccccc2)c2c1C(c1ccc(Cl)cc1)N1C(=N2)C(=O)Nc2ccccc21 (stereo unspecified)	.	1.05
Cc1cc(NCCO)nc(N2CCOCC2)n1	2.31	0.3
O=C1c2ccccc2C(=O)c2c1oc1c3c(ccc21)OCN(CCCN1CCOCC1)C3	.	-0.8
COc1cc(OC)cc(-n2nc(C(=O)N3CCN(Cc4ccc5c(c4)OCO5)CC3)c3ccccc3c2=O)c1	0.455	.
Cc1cc(C)c(S(=O)(=O)N2CCSc3ccccc32)c(C)c1	.	-0.05

In the list so far, six have a COOH group:
SMILES	CapD inh	AID504770
C/C(=N\Nc1nc2sc3c(c2c2ncnn12)CC(C)(C)OC3)C(=O)O	.	-0.9
CC12CC3(C)CC(C)(C1)CC(C(=O)O)(C2)C3	0.79	-0.65
C/C(=N\NC(=O)Cc1nc2ccccc2n1C)c1ccc(S(=O)(=O)NCCC(=O)O)cc1	.	-0.25
COc1ccc(OC)c(/C=C\C(=O)NCC(=O)O)c1	-0.28	-0.2
CC1(C)C=Cc2cc(OCC(=O)O)ccc2O1	-0.25	-0.65
O=C(O)CCCC[C@H]1SC[C@H]2NC(=O)N[C@H]21	0.04	-1.05

7 of the compounds above, bar-delimited:
mol | CapD inh | AID504770
N#Cc1ccsc1NC(=O)CCS(=O)(=O)c1ccccc1 | . | 0
CC(=O)NC(C)c1nc2ccccc2n1Cc1ccccc1 (stereo unspecified) | -0.275 | -0.2
CC(=O)N1CCC(N(C(=O)Nc2ccc(Cl)cc2)C2CCCCC2)CC1 | 0.235 | -1.25
C/C(=N\NC(N)=S)C1=CC(C)(C)CCC1 | . | 0.05
CCc1ccc2cc(-c3ccccc3)cn2c1 | 42.5 | 0.45
O=C(O)CCCC[C@H]1SC[C@H]2NC(=O)N[C@H]21 | 0.04 | -1.05
COC(=O)c1ccc(-n2ncnc2-c2cccc(Br)c2)cc1 | -0.865 | -0.3

Further compounds:
SMILES	CapD inh	AID504770
CS(=O)(=O)c1ccc(C(=O)CCN2CCCCC2)cc1	-0.385	.
COc1ccccc1CNC(=O)c1c[nH]c2ccc(S(=O)(=O)N3CCC4(CC3)OCCO4)cc2c1=O	0.37	.
O=c1oc2ccc(Br)cc2cc1-c1nc(-c2ccc(Cl)cc2)cs1	0.1	.
NCCC(O)C(=O)NC1CC(N)C(OC2OC(CN)C(O)[C@H](O)[C@@H]2N)[C@H](OC2O[C@H](CO)[C@@H](O)[C@@H]2O)[C@@H]1O (stereo partly specified)	1.02	.
COc1ccc(C2C(C(=O)NCc3cccnc3)CCC(=O)N2c2cc(OC)c(OC)c(OC)c2)cc1 (stereo unspecified)	0.135	-1.45
COC(CN=CC1=C(O)CC(C)(C)CC1=O)OC	0.475	-0.55
CCOC(=O)c1sc(NC(C)=O)c(C#N)c1C	0.09	-0.2
O=C(CSc1nnc(-c2ccc(S(=O)(=O)N3CCOCC3)cc2)o1)c1c[nH]c2ccccc12	.	0.65
CNS(=O)(=O)c1cccc(C(=O)NCCCN2CCCC2=O)c1	.	0.05
COC(=O)c1cc(N2CCOCC2)nc(N2CCOCC2)n1	-1.13	.
O=S(=O)(c1ccc(Nc2ccc(F)cc2)nc1)N1CCCC1	.	0.3
CCOC(=O)N1CCN(C(=O)CSc2nnc(C3COc4ccccc4O3)o2)CC1 (stereo unspecified)	0.36	-1.3
O=C(Cc1n[nH]c(=O)c2ccccc12)OCc1ccc(F)cc1	.	0.7
Cn1nnnc1SCC(=O)N=C1NC(=O)CS1	.	-1.05
O=C(Nc1ccc2c(c1)OCO2)c1cc(-c2ccccc2)oc1C(F)(F)F	0.825	1.1
CCc1c(C)[nH]c2ccccc2c1=O	0.04	-0.2
CNc1cc(C(F)(F)F)nc(-c2ccccn2)n1	0.675	0
CC(NC(=O)Nc1c[nH]c2ccccc2c1=O)c1ccncc1 (stereo unspecified)	.	-1.4
COc1ccc(C(=O)Sc2nnnn2-c2ccccc2)cc1	-0.32	-0.05
CC(=O)NS(=O)(=O)c1ccccc1	.	-0.9
COc1ccccc1CC(=O)Nc1cccc(NC(C)=O)c1	2.48	-0.9
Cc1ccc(N2C(N)=C(C(N)=O)C(c3ccc(Cl)cc3)C3=C2CC(C)(C)CC3)cc1 (stereo unspecified)	0.075	-1.2
COc1ccc(CCNC(=O)NC2(C(F)(F)F)Oc3ccccc3O2)cc1OC	-1.73	.
COc1ccc(OC(=O)NCCc2ccccc2)cc1	-1.05	-0.7
CN(C)c1ccc(Cc2ccc(N(C)C)cc2)cc1	-0.19	-1.25
O=C(Cn1nc(-c2ccccc2)oc1=O)OCC(=O)c1ccccc1	.	-0.25
Cc1cc(C(=O)N2CCN(C/C=C/c3ccccc3)CC2)cc(C)c1[N+](=O)[O-]	-0.265	.
COc1ccc(CNC(=O)CN2C(=O)CCc3ccccc32)cc1	-0.98	1.3
CCCc1cc(C(=O)O)n(C)n1	-1.06	-0.15
COc1ccccc1C(=O)N1N=C(C(F)(F)F)CC1(O)C(F)(F)F (stereo unspecified)	-0.23	.
COC(=O)c1ccc(CSc2ccc3nnc(-c4ccc(Cl)cc4)n3n2)o1	-0.55	-0.35
COc1ccc(OC)c(S(=O)(=O)/N=C/N(C)C)c1	-0.43	0.65
Cc1cccc(-c2nc3cccc(F)c3c(=O)o2)c1	-0.49	.
CC1CCN(C(=O)Cn2nnc3ccccc3c2=O)CC1	.	-0.9
N#Cc1nccnc1Oc1cccc(C(F)(F)F)c1	0.62	-0.15
COc1ccc(C2CC(=O)C3=C(C2)OC(N)=C(C#N)C3c2ccc(Cl)cc2)cc1OC (stereo unspecified)	-0.02	.
CSc1ccc(Oc2ccc(C(F)(F)F)cc2[N+](=O)[O-])cc1	0.17	.
O=S(=O)(c1ccc(Cl)cc1)c1nc(N2CCOCC2)sc1Cl	-0.265	-0.3
CCCNS(=O)(=O)c1ccc(NC(=O)C2CC(=O)N(c3ccc(OCC)cc3)C2)cc1 (stereo unspecified)	.	-0.9
COc1ccc(N2CCN(C(=O)OCC3CCCN(Cc4c(Cl)cccc4Cl)C3)CC2C)cc1 (stereo unspecified)	0.575	.
O=C(Nc1ccccc1)Nc1ccc(Cn2cc(C(F)(F)F)ccc2=O)cc1	0.605	.
CCOc1ccc(N2CC(O)(c3ccc(OC(F)F)cc3)[N+]3=C2SCCC3)cc1 (stereo unspecified)	2.72	.
CC(C)(C)C(=O)NC(=S)N1CCc2ccccc21	-2.46	0.6
CN(Cc1ccccc1)c1ncnc2sccc12	.	0.7
CCC(Cc1ccccc1)NC(=O)C1CCCN(c2nnc(-n3cccc3)s2)C1 (stereo unspecified)	-0.195	-0.85
Oc1cccc(N=Cc2sc(=S)n(C3CCCCC3)c2O)c1	.	1
Cc1noc(C)c1S(=O)(=O)NCc1ccc2c(c1)OCO2	.	0.35
CCn1cc(C(=O)NCCC(C)C)c(=O)c2cc(S(=O)(=O)N3CCCCC3)ccc21	2.5	0
O=C1CNC(=S)N1CCOc1ccccc1	-0.735	.
CCCn1cnc2cc(NCc3ccco3)ccc21	46.7	-1.65
